Bioassay records from PubChem BioAssay.
ugtP null kill: compounds lethal to S. aureus RN4220 ugtP deletion mutant | OD600 growth, 16 h; some inactives read as strong as hits | growth inhibition, % (no concentration beside the values) | 0.54% of 330,000 active | AID 1259309;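 active means z-score under -3 and OD600 up to 0.15 on both plates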;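 further: plate controls were untreated wells for no effect and antibiotic for full effect; wells of about 80 µL received 100 nL stock; the first replicate is given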
Bead autofluor: compound fluorescence in toxin protease inhibitor counterscreen; compound autofluorescence counterscreen, microsphere flow cytometry; hits give high values; fluorescence intensity (concentration not given with the values); 3.1% of 360,000 active;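 active means at least 3 SD above the mean of all compounds, about 16000 in these data; inconclusive means too few beads counted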;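 further: 100 nL of 1 mM stock went into each well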
Mtb hypoxia inh: Mtb hypoxia fluorescent reporter inhibition. M. tuberculosis hypoxia-regulated fluorescent reporter, fluorescence. fluorescence inhibition, % (test concentration not listed). 0.1% of 300,000 active. AID 1159583;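 active means 35 to 45% if threefold the growth effect, above 45% if 1.5-fold the growth effect; inactive means the rest, general growth blockers included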;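 further: wells of about 50 µL received 100 nL stock; 0% = vehicle wells and 100% = reference inhibitor wells; whole bacteria with a GFP reporter of the hypoxia response; strong numbers were not always called active; many hits fall short of the cut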
Sa RN4220 lethal: S. aureus RN4220 growth inhibition; OD600, 16 h; inhibition, % (test concentration not listed); 0.33% of 330,000 active;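 active means z-score of -3 or lower and OD600 up to 0.18 on both plates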;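 further: plate controls were untreated cells for no effect and reference antibiotic for full effect; stock transfer was 100 nL into about 80 µL; one replicate is shown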
BJeLR viability: BJeLR cell viability loss; inhibition, % (concentration not given with the values); 0.17% of 300,000 active; BJeLR (HRASV12) viability, CellTiter-Glo ATP luminescence, 48 h; reference of the scale not given here;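 active means replicate mean above 50%; inconclusive means above 50% but judged a plate artefact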;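 further: 50 nL library stock added to about 25 µL; numbers are from one replicate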
PrP UTR inh: inhibition of PrP 5' UTR reporter expression; cell-based PrP 5' UTR mRNA reporter, plate reader; inhibition, % (no concentration beside the values); 0.35% of 340,000 active; AID 488862;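 active means every replicate at 50% or more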;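 further: 0 = median of the neutral control wells; tested in H4 reporter cells; numbers are from one replicate; inactives centre near -14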
Mtb hypoxia inh growth: second read-out of Mtb hypoxia inh, no call of its own (marks repeat the call); growth inhibition, %; measured here: M. tuberculosis growth (absorbance);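 0% = vehicle and 100% = reference antibiotic; read after six days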
An asterisk follows results filed as active; u = inconclusive; x = no result given.

1	COc1ccc(CCNC(=O)c2cc(S(=O)(=O)N3CCCCCC3)ccc2OC)cc1OC
2	COc1cc([N+](=O)[O-])cc(C=NNC(=O)CSc2ccccn2)c1O
3	COc1cccc(/C=N/NC(=O)c2oc3nc(-c4ccccc4)cc(-c4ccco4)c3c2N)c1
4	CC(C)CN1C(=O)c2ccccc2C1(O)Cc1ccccc1 (configuration not stated)
5	Cc1c(Cl)cccc1NC(=S)N1CCN(C(=O)C2CCCO2)CC1 (configuration not stated)
6	O=C(NC1CCCC1)C(c1ccncc1)N(C(=O)c1csnn1)c1ccc(Cl)cc1 (configuration not stated)
assay / compound	1	2	3	4	5	6
ugtP null kill	7	1	x	2	14	19
Bead autofluor	u	x	4242	3981	2580	5854
Mtb hypoxia inh	6	16	x	x	4	7
Mtb hypoxia inh growth	-4	11	x	x	-3	0
Sa RN4220 lethal	3.5	11	x	3.9	1.7	3.8
BJeLR viability	x	x	3	2	0	-4
PrP UTR inh	-31	x	-29	-12	-6	-27

7	CCCS(=O)(=O)NCCc1cc2cc(C)c(C)cc2[nH]c1=O
8	CCOC(=O)N1CCN(C(=O)c2ccc3[nH]c(C)c(C)c3c2)CC1
9	O=C(Nc1ccnn1C1CCN(Cc2cc3ccccc3[nH]2)CC1)C1CCOC1 (configuration not stated)
10	O=[N+]([O-])c1ccc(OCc2cccc(COc3ccc([N+](=O)[O-])cc3)n2)cc1
11	COc1ccc(C2=NOC(CNC(=O)c3ccccc3Br)C2)c(OC)c1 (configuration not stated)
12	O=C1NC(=Nc2ccccc2Cl)S/C1=C\c1cc([N+](=O)[O-])ccc1O
assay / compound	7	8	9	10	11	12
ugtP null kill	6	1	x	-5	9	x
Bead autofluor	3812	4031	6226	2177	3959	4155
Mtb hypoxia inh	x	7	x	9	6	x
Mtb hypoxia inh growth	x	5	x	0	0	x
Sa RN4220 lethal	2.3	4.3	x	2.5	4.8	x
BJeLR viability	-6	x	-2	3	2	-1
PrP UTR inh	-13	-11	-24	-1	-11	-20

13	Cc1cnc(C(=O)OCC(=O)N2CCN(S(=O)(=O)c3ccc(Cl)cc3)CC2)cn1
14	O=C(NC(=S)Nc1ccc(N2CCOCC2)c(Cl)c1)C(c1ccccc1)c1ccccc1
15	O=C(Nc1nnc(C2CC2)s1)c1ccncc1
16	CCCC1S/C(=N/N=C/c2ccc(OC)cc2)N(Cc2ccc(OC)cc2)C1=O (configuration not stated)
17	Cc1noc(C)c1CSc1nnc2sc3ccccc3n12
18	S=C(NCc1ccccc1)Nc1ccc(Cl)cc1
assay / compound	13	14	15	16	17	18
ugtP null kill	0	-10	x	x	-11	-1
Bead autofluor	5113	2836	4647	8825	2933	4039
Mtb hypoxia inh	-3	x	x	x	4	-2
Mtb hypoxia inh growth	3	x	x	x	-2	5
Sa RN4220 lethal	-3.3	-3.8	x	x	-0.6	-3.0
BJeLR viability	4	1	1	-3	-5	-1
PrP UTR inh	1	-14	0	-24	-8	-16

19	Cc1nn2cc(-c3ccc(-c4ccccc4)cc3)nc2s1
20	CCn1c(NC(=O)c2ccccc2F)c(-c2cccs2)c(=O)c2ccccc21
21	O=C1CCCc2ccccc2N1Cc1c(Cl)cccc1Cl
22	CC1=NN(Cc2ccccc2)C(=O)/C1=C\c1ccc(N(C)C)cc1
23	CNc1c([N+](=O)[O-])cnn1-c1ccc(C)cc1
24	CCOc1cccc(NC(=O)CSc2nc(C)c3c(c2C#N)CCCC3)c1
assay / compound	19	20	21	22	23	24
ugtP null kill	-6	2	-11	-4	-11	5
Bead autofluor	3448	5635	2652	2433	23938*	4532
Mtb hypoxia inh	6	11	x	-2	6	-3
Mtb hypoxia inh growth	1	18	x	-1	11	-8
Sa RN4220 lethal	-6.6	1.2	11	-9.6	2.7	3.0
BJeLR viability	10	3	6	5	-4	7
PrP UTR inh	-1	-4	-7	-9	-20	-20

25	CCOC(=O)C1CCCN(C2CC(=O)N(c3cccc(C)c3)C2=O)C1 (configuration not stated)
26	COC(=O)c1ccc(NC(=O)CSc2nc3[nH]ncc3c(=O)[nH]2)cc1
27	Nc1ccc2nc(SCc3cccc(F)c3)sc2c1
28	O=C1C=C(c2ccccc2)C[C@H](c2cccs2)[C@H]1n1nnc([N+](=O)[O-])n1
29	CCOc1ccccc1Nc1nnc(Cc2ccccc2Cl)c(=O)[nH]1
30	CCN1C(=O)C(=c2sc3nc(=O)c(Cc4ccccc4)nn3c2=O)c2ccccc21
assay / compound	25	26	27	28	29	30
ugtP null kill	1	-2	6	100*	-8	15
Bead autofluor	11316	5701	2410	2333	3561	x
Mtb hypoxia inh	4	-8	7	x	0	11
Mtb hypoxia inh growth	4	8	4	x	4	10
Sa RN4220 lethal	1.9	0.2	5.1	59	15	7.7
BJeLR viability	0	4	2	62*	10	x
PrP UTR inh	-17	-10	-56	-55	-5	x

31	Cc1ccc(NC(=O)COC(=O)CCc2ccccc2)cc1S(=O)(=O)N1CCOCC1
32	Cc1cccc(NC(=O)CCN2CCC(C(N)=O)CC2)c1
33	O=C1CCN(C(=O)CNC(=O)Cc2ccccc2)CC1
34	COc1cccc(NC(=O)Nc2nnc(Cc3ccccc3)s2)c1
35	O=C(NCC(c1ccco1)N1CCOCC1)c1cccc(Cl)c1 (configuration not stated)
36	COc1ccc(CCNC(=O)C2CC3Cn4c(nc5cc6ccccc6cc54)C3N2C)cc1 (configuration not stated)
assay / compound	31	32	33	34	35	36
ugtP null kill	12	2	7	-5	1	2
Bead autofluor	x	3603	2620	4024	5277	4052
Mtb hypoxia inh	1	-9	9	-2	-5	-3
Mtb hypoxia inh growth	4	-2	0	4	4	0
Sa RN4220 lethal	6.2	1.4	4.4	4.6	1.9	0.7
BJeLR viability	x	-1	2	-5	-9	-5
PrP UTR inh	-20	-13	-1	-9	1	-8

37	Cc1ccc(C(=O)CSC2=C(C#N)C(c3ccco3)C3=C(CCCC3=O)N2)cc1 (configuration not stated)
38	O=C(CCc1nc(-c2ccccc2)no1)N1CCCC1
39	Cn1c(=O)n(C/C=C/c2ccccc2)c(=O)c2c1nc1n2CCCN1Cc1ccccc1
40	O=c1c2ccsc2ncn1Cc1ccc(Cl)cc1
41	CN1CCN(c2ccc(-c3ccnn3C(=O)Nc3cccc(C(F)(F)F)c3)cc2)CC1
42	COCCN1CN(S(=O)(=O)c2cccc(Cl)c2)c2nc3ccccc3nc21
assay / compound	37	38	39	40	41	42
ugtP null kill	-6	3	0	12	-14	-8
Bead autofluor	5457	4768	u	2998	2010	5758
Mtb hypoxia inh	-2	x	4	x	5	-3
Mtb hypoxia inh growth	3	x	14	x	3	4
Sa RN4220 lethal	2.4	-5.0	-7.1	4.2	-3.0	-3.7
BJeLR viability	19	2	-4	3	x	0
PrP UTR inh	-38	-17	-17	-23	-64	-4

43	COc1ccccc1NC(=O)/C=C1\SCC(=O)N1C
44	NC(=O)CC[C@@H]1NC(=O)[C@@H]2CCCN2C(=O)c2cc([N+](=O)[O-])cc(I)c2NCCCC[C@@H](C(=O)NC(CC(=O)O)C(N)=O)NC1=O (some centres not stated)
45	COc1cc(/C=N/NC(=O)c2cccnc2)ccc1OC(=O)c1ccco1
46	Cc1ccc(CN2CCN(N=Cc3cccs3)CC2)cc1
47	CC1(C)CC(=O)C2=C(C1)OC1=C(C(=O)CC(C)(C)C1)C2c1ccc(O)c([N+](=O)[O-])c1
48	COc1ccc(C(=O)N2CCN(Cc3ccc4c(c3)OCO4)CC2)cc1[N+](=O)[O-]
assay / compound	43	44	45	46	47	48
ugtP null kill	-1	x	x	13	7	10
Bead autofluor	4693	2990	7687	x	2811	2651
Mtb hypoxia inh	7	x	x	7	3	9
Mtb hypoxia inh growth	-2	x	x	10	5	9
Sa RN4220 lethal	2.4	x	x	-2.0	13	4.0
BJeLR viability	6	11	1	x	4	9
PrP UTR inh	-19	-12	-21	x	-22	-6

49	Cc1ccc(-c2csc(-c3cc(C)on3)n2)cc1
50	COC(=O)CN1C(=O)C2C(c3ccc(C)o3)N3C(=O)CN(Cc4ccccn4)C(=O)[C@@]3(C)C2C1=O (some centres not stated)
51	CCNC(=S)NN=Cc1cc(Br)cc(Br)c1OC
52	Nn1c(SCc2nc3ccccn3c2Br)nnc1-c1cccnc1
53	Cc1[nH]c2c(Cl)cccc2c(=O)c1CN1CCCC1
54	COc1ccccc1N(C)S(=O)(=O)c1ccc(C(=O)NC2=NCCS2)cc1
assay / compound	49	50	51	52	53	54
ugtP null kill	-2	-1	5	7	0	-4
Bead autofluor	x	x	x	2139	4708	4423
Mtb hypoxia inh	-2	1	-10	x	x	13
Mtb hypoxia inh growth	19	0	-3	x	x	19
Sa RN4220 lethal	2.3	4.6	4.5	0.4	-0.9	7.2
BJeLR viability	-3	x	x	-3	2	-2
PrP UTR inh	-63	x	x	-15	-12	-16

55	COc1ccc(Br)cc1CN(C)C(C)C(=O)Nc1cc([N+](=O)[O-])ccc1OC (configuration not stated)
56	CC(C)(C)NC(=O)CSc1nc2ccc(NC(=O)CSc3nnc(N)s3)cc2s1
57	COc1ccc(NS(=O)(=O)c2cccs2)c(OC)c1
58	CC(C)(C)N(Cc1ccccc1)C(=O)c1ccc(Br)o1
59	O=C(COc1ccc(Br)cc1Cl)NC(=S)N1CCc2ccccc21
60	CCCOc1ccc(-c2c(C(=O)N/N=C/C3CCCCC3)nnn2-c2nonc2N)cc1
assay / compound	55	56	57	58	59	60
ugtP null kill	-17	x	-1	7	46	x
Bead autofluor	2534	2336	2362	4505	2150	5409
Mtb hypoxia inh	7	x	x	12	-3	x
Mtb hypoxia inh growth	3	x	x	-2	-18	x
Sa RN4220 lethal	-2.4	x	0.3	-0.1	13	x
BJeLR viability	-8	-11	1	2	-1	0
PrP UTR inh	-28	0	-16	-16	-25	-7

61	O=C(c1cccs1)N1CCN=C1SCc1ccc(Cl)cc1
62	O=C(NN=Cc1ccc[nH]1)c1ccccc1O
63	CN(C(=O)COC(=O)/C=C/c1ccccc1[N+](=O)[O-])c1ccccc1
64	CCn1[nH]c(=O)c(=Nc2c(C)n(C)n(-c3ccccc3)c2=O)cc1-c1ccc(Cl)cc1
65	O=C1CCCN1CCCNCC(=O)N1c2ccccc2Sc2ccccc21
66	NC(=O)c1oc2ccccc2c1NC(=O)Cc1ccccc1
67	O=c1c2c3c(sc2ncn1/N=C/c1ccc(Br)o1)CCCC3
68	O=C(NCc1ccccc1Cl)C1CCC(CNc2nc(=S)[nH]c3ccccc23)CC1 (configuration not stated)
assay / compound	61	62	63	64	65	66	67	68
ugtP null kill	7	3	-3	4	0	4	x	6
Bead autofluor	3389	x	4304	22167*	4658	x	10291	3984
Mtb hypoxia inh	-2	14	3	5	-8	12	x	14
Mtb hypoxia inh growth	0	1	10	0	-1	-2	x	7
Sa RN4220 lethal	7.2	3.8	1.1	-2.3	-1.4	0.8	x	5.6
BJeLR viability	3	x	8	-5	-23	-5	-3	-3
PrP UTR inh	-13	x	-26	-10	-4	-9	-17	-17

A different layout for part of the listing above:
Order of results: ugtP null kill	Bead autofluor	Mtb hypoxia inh	Mtb hypoxia inh growth	Sa RN4220 lethal	BJeLR viability	PrP UTR inh
65. O=C1CCCN1CCCNCC(=O)N1c2ccccc2Sc2ccccc21
    0	4658	-8	-1	-1.4	-23	-4
66. NC(=O)c1oc2ccccc2c1NC(=O)Cc1ccccc1
    4	x	12	-2	0.8	-5	-9
67. O=c1c2c3c(sc2ncn1/N=C/c1ccc(Br)o1)CCCC3
    x	10291	x	x	x	-3	-17
68. O=C(NCc1ccccc1Cl)C1CCC(CNc2nc(=S)[nH]c3ccccc23)CC1 (configuration not stated)
    6	3984	14	7	5.6	-3	-17

Not a hit list. Share with any hit: about 3.9%.
